# gsp ag: activates gsp, the McCune-Albright syndrome mutation; gsp mutant cells, cAMP HTRF, 30 min; control for the full effect not named in the record; Potency, µM (doses to about 76.9 µM), for inactives: at the top dose activation (cAMP increase), usual class: activators; 340,000 tested, 0.13% active; active = well fitted activation curve with a large enough effect; inconclusive = small, poorly fitted or top-dose-only effect, or another doubt; inactive = no such curve, though single readings can be large or run the other way; cell line not stated here;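 further: phosphodiesterase inhibitor Ro 20-1724 added with compounds to block cAMP breakdown; potency means the concentration at half of the fitted maximal effect; nearly all actives have a fitted effect of over 60% in size; about a fifth of the inactives were tested at one dose only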
#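 Cells in DMEM/10% FBS with G418 were pretreated with compounds in DMSO plus […] (300 uM stock) for 30 min at 37C. cAMP was measured by HTRF (cAMP-d2 plus anti-cAMP antibody-K) after 30 min at room temperature.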
# D2 potentiator: potentiates the human D2 dopamine receptor allosterically; DiscoveRx D2 beta-arrestin cells, luminescence, 90 min; 100% = 57 uM dopamine signal; AID 624464; potentiation, % (test concentration not listed); 360,000 tested, 0.23% active; P14416; active = potentiation of 50% or more; inconclusive = 30% to 50%; inactive = 30% or less;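 further: compound concentration not given in the record; tested on top of an EC20 dose of dopamine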
# Target sequence (P14416 whole entry, looked up): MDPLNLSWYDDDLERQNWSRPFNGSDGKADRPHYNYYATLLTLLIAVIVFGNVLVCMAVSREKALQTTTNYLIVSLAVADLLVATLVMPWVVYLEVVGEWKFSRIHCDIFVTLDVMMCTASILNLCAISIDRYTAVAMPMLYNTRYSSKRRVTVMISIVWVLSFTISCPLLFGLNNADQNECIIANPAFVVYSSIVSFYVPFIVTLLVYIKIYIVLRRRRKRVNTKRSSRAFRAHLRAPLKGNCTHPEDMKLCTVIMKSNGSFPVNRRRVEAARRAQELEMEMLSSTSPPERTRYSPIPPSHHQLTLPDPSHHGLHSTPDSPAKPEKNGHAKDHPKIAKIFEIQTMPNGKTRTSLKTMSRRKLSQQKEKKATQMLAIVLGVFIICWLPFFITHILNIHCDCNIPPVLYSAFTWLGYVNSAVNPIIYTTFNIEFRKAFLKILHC
#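 PathHunter D2 cells, attached overnight at 37 deg C, received compound in DMSO plus dopamine at EC20 (50 nM final) for 90 min at 37 deg C. Beta-arrestin recruitment was read as luminescence after 1 h with detection reagent at ambient temperature.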
# TRPV1 potentiator: human TRPV1 potentiation | 320,000 tested, 0.02% active | potentiation, % at 8.33 µM | Q8NER1 | AID 540277 | TRPV1-expressing cells, Fluo-8 calcium influx, capsaicin EC20 potentiation; host cell line not named in the record; control for the full effect not named in the record; active means potentiation above 80%; inconclusive means 30% to 80%; inactive means below 30%; further: 0% is about no effect
#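 TRPV1-expressing cells were cultured overnight at 35.5C and loaded with Fluo-8 calcium dye for 40 to 90 min at room temperature. After a 10 s baseline, compound was added and calcium influx was read kinetically for 3 min (ex 480/em 520 nm).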
# Sfp PPTase inh: inhibitors of Bacillus subtilis Sfp phosphopantetheinyl transferase. 310,000 tested, 3.5% active. AID 1490. Biochemical Sfp PPTase activity, qHTS. Potency, µM, without a hit: max response, negative = inhibition, usual class: inhibitors; active means well fitted inhibition curve with a large enough effect; inconclusive means small, poorly fitted or top-dose-only effect, or another doubt; inactive means no such curve, though single readings can be large or run the other way;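 further: the enzyme is Sfp with the accession as filed and its product quenches rhodamine fluorescence; potency means the concentration at half of the fitted maximal effect; 0% = enzyme reaction without inhibitor and -100% = no enzyme wells; top concentration of the series not given in the record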
#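 Step 1, compound plus 15 nM Sfp-PPTase, 15 min, room temperature. Step 2, add rhodamine-CoA (5 uM) and BHQ-2-YbbR (12.5 uM). Step 3, read 525/598 nm fluorescence at 0 and 30 min.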
# gsp antagonist: antagonists of gsp mutant (McCune-Albright syndrome) | gsp-mutant cells, cAMP HTRF, 30 min; control for the full effect not named in the record | Potency, µM (doses to about 76.9 µM), inactives show at the highest dose activity change, negative = inhibition, most hits filed as inhibitors | 340,000 tested, 0.4% active; active = falling curve of any shape with a large fitted effect; inconclusive = falling curve, mostly with a smaller effect; inactive = flat or rising curve; cell line not stated here;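 further: intracellular cAMP measured with PDE inhibitor Ro 20-1724 present during compound exposure; potency means the concentration at half of the fitted maximal effect; on the % scale 0 is the no-effect control and ±100 the full control effect; nearly all actives have a fitted effect of over 65% in size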
#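 HTRF cAMP measurement after 30 min RT detection following 30 min, 37C compound treatment alongside […] (added as 300 uM solution) in G418-selected cells seeded at 2000/well and grown 16–24 h.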
# ClpP mod: qHTS Assay for Activators of ClpP. AID 651965, 2013. Potency, µM (top dose mostly 57.5 µM), for inactives: at the highest dose activity change, negative = active. purified B. subtilis ClpP, FRET peptide cleavage, 20 min. 340,000 tested, 1.9% active; active = well fitted falling curve with a large enough effect; inconclusive = small, poorly fitted or top-dose-only effect; inactive = no such curve, though single readings can be large or run the other way; further: potency means the concentration at half of the fitted maximal effect; the source files actives as falling curves though it sought activators and does not explain the sign; nearly all actives have a fitted effect of over 65% in size; many hits overshoot -100%
# Target sequence (P80244 whole entry, looked up): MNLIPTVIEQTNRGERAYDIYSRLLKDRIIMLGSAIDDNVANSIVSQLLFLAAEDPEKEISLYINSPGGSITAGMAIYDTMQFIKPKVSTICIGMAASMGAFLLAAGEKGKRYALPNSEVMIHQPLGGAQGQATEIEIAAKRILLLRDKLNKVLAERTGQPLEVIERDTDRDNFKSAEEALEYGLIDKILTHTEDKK
#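 Purified B. subtilis ClpP, 10 microg/mL final in Tris/HCl pH8 with KCl, BSA, glycerol and Tween-20, cleaved an Abz/nitrotyrosine-quenched decapeptide. Fluorescence (ex 320, em 430) was read at 0 and 20 min at room temperature. Delta was normalized to 5.8 microM ADEP and DMSO/no-enzyme controls.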
# Menin MLL FP FL: displaces fluorescein MLL peptide from human menin; Fluorescence polarization, fluorescein-MLL peptide displacement from menin; FP activity change, % at 61.4 µM; 290,000 tested, under 10 active; inconclusive = falling polarisation curve, or a change in total fluorescence; inactive = total fluorescence flat and polarisation flat or rising; no compound was filed as active; the % refers to the polarisation; negative = inhibition;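 further: % of control where 0% means no effect; inhibitors lower the polarisation; unlabelled MLL peptide was the positive control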
# The depositor's hits bear a star; u = inconclusive; x = not tested or not shown; & = joins results of further samples; ! = not active in a repeat; [ ] = dose if it differs, or a comment.
SMILES,gsp ag,D2 potentiator,TRPV1 potentiator,Sfp PPTase inh,gsp antagonist,ClpP mod,Menin MLL FP FL
CC(=O)c1ccc(N(C(=O)CS(=O)CC(=O)Nc2ccc(F)cc2)C(C(=O)NC2CCCCC2)c2cccs2)cc1 (stereo not given),0%,-5,6,30%[activator],-12%,1.4%,6.9
CCCCC[C@H](O)/C=C/[C@H]1C=CC(=O)[C@@H]1C/C=C\CCCC(=O)O,x,x,-1,56µM*!,x,x,u
COc1cc(Br)cc(C(c2c(C)n(C)n(-c3ccccc3)c2=O)c2c(C)n(C)n(-c3ccccc3)c2=O)c1O,17%[15.4 µM],-5,x,x,-5%,x,x
N#Cc1nc(-c2ccco2)oc1N1CCc2ccccc2C1,1%,-10,19,-9%,0%,14µM*,9.2
CCn1c(SCC(=O)Nc2ccc3c(c2)OCCO3)nnc1-c1c[nH]c2ccccc12,29%,-3,6,14%,-11%,-4.2%,-3.3
CC1CCCC(NC(=O)CNC(=O)c2cccs2)C1C (stereo not given),0%[15.4 µM],-69,3,x,6%,x,x
Nc1nnc(SCC(=O)Nc2cc(C(F)(F)F)ccc2N2CCOCC2)s1,-2%,-9,12,2%,-10%,-2.1%,1.3
COc1cc(C=C2C(=O)OC(C)(C)OC2=O)cc(Cl)c1OCC(=O)Nc1ccccc1,-39%[inhibitor],-7,2,22%,-9%,-3.9%,1.8
O=S1(=O)c2ccccc2C(CCO)N1Cc1ccccc1 (stereo not given),u,-11,-5,20%&10%,7%,-2.3%,-4.0&1.2
CN(C)c1ccc(/C=N/N2C(=S)SC(C)(C)C2N(O)C(=O)Nc2ccc([N+](=O)[O-])cc2)cc1 (stereo not given),-22%,-9,5,19%,-24%,-0.7%,2.2
Cc1nn(Cc2ccccc2)c(C)c1C(=O)NCCCN1CCCC1=O,-7%,2,-1,x,13%,1.0%,x
COc1cccc(/C=C2\CCC(C3CCCC3)C2=O)c1 (stereo not given),19%[15.4 µM],-1,7,-1%,-33%,-1.3%,-1.0
Nn1c(SCc2ccccc2F)nnc1-c1cccnc1,-8%,-11,3,10%,8%,-2.1%,2.2
CCN(c1cccc(C)c1)S(=O)(=O)c1cn(CC(=O)OC)c2ccc([N+](=O)[O-])cc12,12%,-9,0,10%,2%,0.3%,1.4
COc1cc(/C=C/C(=O)Nc2nnc(CC(C)C)s2)cc(OC)c1OC,1%,-15,3,-8%,-7%,35µM*,-4.3
CC(C)NC(=O)CN1C(=O)C(C)(C)Oc2ccc(C(=O)NC3CCCCC3)cc21,3%[15.4 µM],-17,1,1%,0%,x,-6.7
CCOC(=O)CSc1nc2ccccc2c(=O)n1CC1CCC(C(=O)NCc2ccco2)CC1 (stereo not given),-4%,-8,30,-2%,-12%,-8.1%,1.5
Cc1cc(C)c(NC(=O)C2CCN(c3cnccn3)CC2)c(C)c1,-24%,-1,0,0%,1%,-8.7%,2.7
CCOC(=O)c1sc(-c2ccc(Cl)cc2)nc1O,5%[15.4 µM],-5,4,-22%,14%,0.1%,8.6
Cc1cccc(N2CC(C)Cn3c2nc2c3c(=O)[nH]c(=O)n2C)c1 (stereo not given),29%,-6,0,9%,-5%,x,2.8
COc1ccc(C)cc1S(=O)(=O)NC1CCCCC1,u,-3,-18,17%,2%,-0.5%,0.7
COCCNC(=O)c1cc2nc(-c3ccc(F)cc3)cc(C(F)(F)F)n2n1,16%[15.4 µM],-1,-4,19%,-4%,x,0.8
N#Cc1ccc(CSc2nnc(-c3cccs3)n2-c2ccccc2)cc1,-6%,3,1,2%,u,2.4%,6.6
CC(=O)Nc1nc(C)c(Oc2ccc(Cl)cc2)c(=O)[nH]1,-4%[15.4 µM],-3,15,14%,-5%,x,-0.4
COC(=O)c1ccc(CNC(=O)Cn2cnc3c(NCc4ccccc4)ncnc32)cc1,x,0,x,x,1%,-0.2%,x
COc1ccc(S(=O)(=O)N2CCCC2)c(Cl)c1Cl,22%,-7,u,10%,-1%,x,-1.5
Cc1ccc(-n2c(N)c(C(=O)N3CCOCC3)sc2=S)cc1,-28%,-5,25,-90%,5%,-0.4%,1.1
CC(C)C(NC(=O)c1ccccc1)C(=O)N/N=C\c1ccco1 (stereo not given),-12%,16,10,3%,3%,0.1%,1.2
COC(=O)c1ccc(SCC(=O)N2CCC(C)CC2)c([N+](=O)[O-])c1,u,-5,-12,-10%,-9%,-13%,7.4
CC(=O)Nc1c(Cl)cc2c(c1Cl)Cc1ccccc1-2,-6%,5,x,x,u,-1.2%,x
COc1cccc2[nH]c(C(=O)NCC3CCCO3)cc12 (stereo not given),-41%[inhibitor],-31,16,10%,-10%,3.9%,-8.7
COc1ccc(N/C(=N\c2nc(C)cc(C)n2)NC(C)=O)cc1OC,8%,-11,12,9%,2%,1.3%,-0.7
Cc1ccc(Cl)cc1NC(=O)C1CCN(S(C)(=O)=O)CC1,-2%[15.4 µM],-16,-18,6%,-9%,x,1.3
c1ccc2c(c1)nc1n2CCC1,u,-2,x,x,7%,-1.9%,x
CCOC(=O)c1cc[n+](CC(=O)c2ccc(F)cc2)cc1,-38%[inhibitor],-19,18,-15%,-4%,-1.0%,6.2
Cc1cc(OCc2ccc(C(=O)NN=C3CCCC3)cc2)ccc1Cl,u,0,2,-12%,-1%,x,-3.0
CC(C)(C)c1cc(NC(=O)c2c(F)cccc2Cl)n(-c2ccccc2)n1,-3%[15.4 µM],-11,-8,10%,-15%,x,x
CCCCC1C2=C(CC(C)(C)CC2=O)OC2=C1C(=O)CC(C)(C)C2,-3%,-14,-10,3%,u,-2.8%,0.2
CCOCC(=O)Nc1cc(C(=O)Nc2cc(C)cc(C)c2)ccc1Cl,x,x,-11,15%,x,x,3.7
O=C(O)COc1ccccc1O,2%,-1,3,10%,5%,-2.1%,2.6
CCOc1ccc2oc(C(=O)OCC(=O)NC(=O)NC3CCCC3)c(C)c2c1,-24%,6,2,17%,-8%,22µM*,-1.4
COC(=O)c1ccc(COC(=O)c2[nH]c(C)c(C(C)=O)c2C)o1,-3%,-10,-12,2%,-14%,-0.4%,u
CC(C)NC(=S)N(CCc1ccncc1)C(C)C,-6%,-6,3,11%,8%,x,2.9
Cn1c(=O)[nH]c(N)c(Br)c1=O,-10%,-2,x,x,-4%,x,x
COc1ccc(NC(=O)Nc2cccc3c2O[C@@H](CN(C)S(=O)(=O)c2cn(C)cn2)[C@@H](C)CN([C@H](C)CO)C3=O)cc1,x,-5,x,x,12%,2.6%,x
COC(=O)c1cccc(-n2c(C)cc(/C=C3\SC(=O)NC3=O)c2C)c1,-15%,-5,x,x,x,-4.6%,x
CCCOc1cc(CC(=O)NCc2ccco2)ccc1OC,9%,10,-4,10%,6%,-4.3%,1.8
COc1cc2ccccc2cc1C(=O)NC(=S)Nc1ccc(C(=O)O)cc1,7%,-11,-12,-24%,u,0.8%,-1.4
COc1ccccc1N(CCC#N)C(=O)CSc1nc(-c2ccccc2)cn1N,-42%[inhibitor],-2,4,8%,10%,-5.7%,0.7
CCOC(=O)c1c(NC(=O)c2c(Br)cnn2C)c(C#N)nn1-c1ccccc1,-25%,-7,8,5%,-10%,-17%,4.2
O=C(COC(=O)Cc1ccc(Br)cc1)NCc1ccccc1,-76%[inhibitor],8,x,x,x,0.7%,x
Cc1ccccc1OCC(O)CNC1CCC(NCC(O)COc2ccccc2C)CC1 (stereo not given),0%,1,15,-6%,-7%,x,-8.6
O=C(CN(c1ccccc1Cl)S(=O)(=O)c1ccccc1)NC1CC2CCC1C2 (stereo not given),0%,-16,x,x,x,0.2%,x
C=CCNc1nc(Cl)nc(Nc2ccc([N+](=O)[O-])cc2)n1,5%[15.4 µM],-7,2,-2%,0%,x,-0.6
CCS(=O)(=O)N(CC(=O)Nc1cccc2ccccc12)c1ccc(OC)cc1,-65%[inhibitor],-20,9,x,-5%,-0.9%,x
Cc1[nH]c2ccccc2c1CCN(Cc1cccs1)C(=S)NC(C)(C)C,-75%[inhibitor],-11,20,-1%,-6%,-5.5%,-1.9
O=C(COC(=O)/C=C/c1nc2ccccc2s1)Nc1cccc2ccccc12,5%,-8,-12,u,-6%,0.5%,3.8
Cc1cccc(-n2c(SCC(=O)O)nc3sc4c(c3c2=O)CCCC4)c1,-4%,-6,12,16%,17%,1.5%,-0.7
CCOc1ccccc1C(=O)NC(C(=O)OCn1nnc2ccccc2c1=O)C(C)C (stereo not given),-51%[inhibitor],-4,x,x,x,0.8%,x
COc1ccc(Br)cc1CNC(=O)C1CCCN(c2nc3ccccc3o2)C1 (stereo not given),-31%,-3,-9,0%,-9%,0.9%,-0.6

# The list continues:
SMILES,gsp ag,D2 potentiator,TRPV1 potentiator,Sfp PPTase inh,gsp antagonist,ClpP mod,Menin MLL FP FL
CC(C)c1ccc(C(C(C(=O)c2ccccc2)N2CCOCC2)N2CCOCC2)cc1 (stereo not given),-30%,-7,x,x,11%,x,x
Cn1c(=O)c2sccc2n2c(CCCC(=O)NCc3ccc4c(c3)OCO4)nnc12,35µM*,-9,5,-2%,-1%,-6.5%,4.9
CCCCC(C(=O)NC(C)(C)C)N(Cc1ccco1)C(=O)c1snc(C(N)=O)c1N (stereo not given),2%,3,-13,14%,-11%,-18%,3.4
Cc1ccc(C(=O)NCC2CCCN2S(=O)(=O)c2cccs2)cc1C (stereo not given),18%,0,-2,x,-2%,-1.8%,x
Cc1ccccc1-n1nc(-c2cccnc2)cc1C(=O)N/N=C/c1ccncc1,-48%[inhibitor],-5,11,21%,-11%,x,-1.1
Cc1ccc(Cn2c(CN3CCOCC3)nc3c2c(=O)[nH]c(=O)n3C)cc1,4%,-1,8,20%,14%,5.2%,8.8
O=C(Nc1cccc(Cl)c1)Nc1nc(-c2ccccc2)cs1,19%,-3,-8,2%,-3%,-0.1%,4.3
Cc1ccc(OCCCCn2c(CO)nc3ccccc32)cc1,u,-12,-6,12%,2%,-0.3%,-9.7

# Source: PubChem
